TRPML1 blocker: human mucolipin-1 channel inhibition | Q9GZU1 | AID 624415 | 390,000 tested, 0.02% active | TRPML1-inducible cells, Ca2+ dye fluorescence, FDSS; active compounds read low; inhibition of EC80 agonist-evoked calcium signal | activity change, negative = inhibition, % (concentration not given with the values); in the data active means activity change below about -50%; inconclusive means about -30% to -50%; inactive means above about -30%;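 note: stimulus is agonist 54-4 at its EC80 concentration; % is set by controls: 0 for no effect and ±100 for the full control effect; the text of the record puts the active cut at -80%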
Target sequence (Q9GZU1 whole entry, looked up): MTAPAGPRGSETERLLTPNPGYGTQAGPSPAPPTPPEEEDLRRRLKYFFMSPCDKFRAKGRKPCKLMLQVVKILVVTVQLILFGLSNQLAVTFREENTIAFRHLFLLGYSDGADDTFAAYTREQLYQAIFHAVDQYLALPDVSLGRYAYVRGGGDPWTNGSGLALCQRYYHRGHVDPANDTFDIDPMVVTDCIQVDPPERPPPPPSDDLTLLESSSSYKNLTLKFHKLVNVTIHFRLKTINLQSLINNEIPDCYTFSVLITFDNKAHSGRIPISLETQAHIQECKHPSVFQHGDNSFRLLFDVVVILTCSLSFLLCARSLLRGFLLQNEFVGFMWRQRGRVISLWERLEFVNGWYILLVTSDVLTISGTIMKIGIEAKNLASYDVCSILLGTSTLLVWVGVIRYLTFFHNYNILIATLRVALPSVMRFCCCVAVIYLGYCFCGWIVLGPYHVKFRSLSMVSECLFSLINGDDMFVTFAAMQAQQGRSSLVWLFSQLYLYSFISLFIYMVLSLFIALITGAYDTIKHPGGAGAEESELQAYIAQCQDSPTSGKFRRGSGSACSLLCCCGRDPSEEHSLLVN
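TRPML1-DL cells, Tet-induced overnight (~16 h, 37 °C) at 1,500 cells/well, were loaded with Ca8 no-wash dye plus quencher for 45-90 min at room temperature. Compounds were pinned during FDSS kinetic reading; agonist 54-4 at EC80 (4 uM final) then added.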
Sfp PPTase inh: inhibitors of Bacillus subtilis Sfp phosphopantetheinyl transferase; Q9F4F7; Biochemical Sfp PPTase activity, qHTS; Potency, µM, inactives show max response, negative = inhibition, actives largely listed as inhibitors; 310,000 tested, 3.5% active; AID 1490; active = well fitted inhibition curve with a large enough effect; inconclusive = small, poorly fitted or top-dose-only effect, or another doubt; inactive = no such curve, though single readings can be large or run the other way;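 note: the enzyme is Sfp with the accession as filed and its product quenches rhodamine fluorescence; potency is the fitted concentration of half-maximal effect; 0% = enzyme reaction without inhibitor and -100% = no enzyme wells; top concentration of the series not given in the record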
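Fluorescence-quenching assay: 15 nM Sfp-PPTase preincubated 15 min at room temperature with compound, then 5 uM rhodamine-CoA and 12.5 uM BHQ-2-labelled YbbR peptide added. Fluorescence (ex 525/em 598 nm) read at start and after 30 min; difference gives rate.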
TRPML1 agonist: activates the human TRPML1 channel. 410,000 tested, 0.12% active. Q9GZU1. TRPML1-expressing cells, Ca2+ dye fluorescence, FDSS; host cell line not named in the record; reference of the full effect not given here. AID 624414. activation, % (no concentration beside the values); in the data active = activation above about 50%; inconclusive = about 30% to 50%; inactive = below about 30%; note: 0% is about no effect; the text of the record puts the active cut at 80%
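Calcium fluorescence on an FDSS kinetic reader gave the read-out. Tet-induced TRPML1-DL cells were plated overnight, dye-loaded (Ca8 with quencher, 45-90 min, room temperature, dark), then read 110 s after compound addition, and again 110 s after 4uM final 54-4 (EC80).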
Menin-MLL FL inh: menin-MLL binding inhibition, fluorescein peptide. FP activity change, % at 61.4 µM. Fluorescence polarization, fluorescein-MLL peptide displacement from menin. 290,000 tested, under 10 active; inconclusive = falling polarisation curve, or a change in total fluorescence; inactive = total fluorescence flat and polarisation flat or rising; no compound was filed as active; the % refers to the polarisation; negative = inhibition;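 note: % of control where 0% means no effect; inhibitors lower the polarisation; unlabelled MLL peptide was the positive control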
PINK1 modulator: modulators of PINK1 expression; Potency, µM (highest dose often 76.6 µM), inactives show top-dose activation (PINK1 increase), usual class: activators; PINK1 immunofluorescence, high-content cytometry, 24 h; 410,000 tested, 0.2% active; AID 624263; active = well fitted activation curve with a large enough effect; inconclusive = small, poorly fitted or top-dose-only effect; inactive = flat fitted curve, though single readings scatter; cell line not stated here;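 note: potency is the fitted concentration of half-maximal effect; % of control where 0% means no effect; nearly all actives have a fitted effect of over 65% in size; a mitochondrial uncoupler was the plate control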
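Fluorescence from anti-PINK1 antibody, together with nuclear and cell stains, was scanned on a laser-scanning cytometer. Before staining, stable-line cells were incubated 24 hours with compounds at 5 concentrations; primary antibody 12 h at 10 degrees C.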
TRPV1 potentiator: potentiators of human vanilloid receptor 1 (TRPV1). Q8NER1. TRPV1-expressing cells, Fluo-8 calcium influx, capsaicin EC20 potentiation; host cell line not named in the record; control for the full effect not named in the record. potentiation, % at 8.33 µM. 320,000 tested, 0.02% active; active means potentiation above 80%; inconclusive means 30% to 80%; inactive means below 30%; note: 0% is about no effect
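TRPV1-expressing cells were cultured overnight at 35.5C and loaded with Fluo-8 calcium dye for 40 to 90 min at room temperature. After a 10 s baseline, compound was added and calcium influx was read kinetically for 3 min (ex 480/em 520 nm).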
ClpP mod: qHTS Assay for Activators of ClpP; ATP-dependent Clp protease proteolytic subunit (Bacillus subtilis (strain 168)), P80244; purified B. subtilis ClpP, FRET peptide cleavage, 20 min; Potency, µM (top dose mostly 57.5 µM), for the others: top-dose activity change, negative = active; 340,000 tested, 1.9% active; active = well fitted falling curve with a large enough effect; inconclusive = small, poorly fitted or top-dose-only effect; inactive = no such curve, though single readings can be large or run the other way; note: potency is the fitted concentration of half-maximal effect; the source files actives as falling curves though it sought activators and does not explain the sign; nearly all actives have a fitted effect of over 65% in size; many hits overshoot -100%
Target sequence (P80244 whole entry, looked up): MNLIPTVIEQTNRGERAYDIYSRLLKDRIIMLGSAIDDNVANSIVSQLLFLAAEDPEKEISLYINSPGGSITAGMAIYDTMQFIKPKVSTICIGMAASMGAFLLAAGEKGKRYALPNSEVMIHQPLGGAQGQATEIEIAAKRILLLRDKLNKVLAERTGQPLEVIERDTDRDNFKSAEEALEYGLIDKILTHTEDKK
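FRET quenching reversal measured ClpP activation: 10 microg/mL B. subtilis ClpP at pH 8 with the FRET-FV decapeptide, read at 430 nm after 320 nm excitation. The 20-min minus 0-min signal was scaled between DMSO/no-enzyme wells and ADEP (5.8 microM final).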
The depositor's hits bear a star; ? = inconclusive; . = not tested or not shown; [ ] = dose if it differs, or a comment.

SMILES	TRPML1 blocker	Sfp PPTase inh	TRPML1 agonist	Menin-MLL FL inh	PINK1 modulator	TRPV1 potentiator	ClpP mod
COc1ncnc2c1oc1nc(CC(C)C)c3c(c12)CC(C)(C)OC3	-6.9	-5.3%	1.5	-2.1	?	15.4	-2.9%
Nc1nc(CSc2ccccc2)nc(N2CCCCC2)n1	25.1	9.1%	1.0	-0.6	1.8%	-0.3	.
CCCNC(=O)Cn1cnc2sc(C(=O)N3CCN(Cc4ccc5c(c4)OCO5)CC3)c(C)c2c1=O	-7.4	7.0%	-0.3	4.4	-1.0%	-0.1	.
CCn1nnnc1SCC(=O)Nc1nc(C)c(C)s1	4.6	2.5%	0.5	0.0	-0.8%	-3.3	-3.1%
C=CCN1C(=O)/C(=N/n2cnnc2)c2ccccc21	21.2	-0.6%	-0.1	1.1	2.4%	0.8	1.4%
Cc1ccc(C)c(CN2CCC(CNC(=O)Nc3ccc(Cl)cc3)CC2)c1	9.2	-2.6%	-0.1	-3.9	12.1%	-19.5	2.1%
CCSc1nnc(-c2cccnc2)n1-c1ccc(C)c(Cl)c1	16.0	11.7%	1.1	-0.6	1.7%[38.3 µM]	3.2	-2.9%
Cn1c(-c2ccc3nc(N)sc3c2)nc2cc(N)ccc21	17.3	8.2%	0.8	2.2	-0.9%	8.4	10µM*
COc1cc(/C=N/NC(=O)Cn2cnc3c2c(=O)n(C)c(=O)n3C)cc(OC)c1OC	29.2	6.9%	-0.7	0.2	2.6%	6.3	1.7%
CCN(c1cccc(C)c1)S(=O)(=O)c1cc(Br)cc2c1N(C(C)=O)C(C)C2 (configuration not stated)	6.4	.	0.9	.	3.6%	.	0.5%
CCOc1ccc(-n2c(CC)nc3c(cnn3-c3ccc(Cl)cc3)c2=O)cc1	6.5	.	-0.4	.	-0.3%	.	-3.4%
N#CCCN(C(=O)COC(=O)c1ccc(S(=O)(=O)N2CCOCC2)cc1)c1ccccc1	15.7	.	0.0	.	-0.3%	.	0.0%
CC1CCCCN1CCCNc1ccc(C(CC(N)=O)NC(=O)Cc2ccc(Br)cc2)cc1[N+](=O)[O-] (configuration not stated)	10.5	8.1%	-0.4	-13.6	-0.7%	-1.7	-1.8%
COCCNC(=O)c1ccc2c(=O)n(Cc3ccco3)c(SCC(=O)NC3CCCC3)nc2c1	-6.2	3.1%	-0.8	-2.1	2.5%	4.8	-1.2%
CCOC(=O)Cn1c(=O)n(Cc2ccco2)c(=O)c2ccc(C(=O)NCCc3ccccc3)cc21	16.6	56.2µM*	-0.3	7.4	-1.7%	-3.4	-2.4%
CC1CCCC(NC(=O)CN2C(=O)NC(Cc3c[nH]c4ccccc34)C2=O)C1C (configuration not stated)	-14.8	.	2.9	.	1.9%	.	-3.2%
NC(=O)NCc1ccc(C(=O)OCc2ccncc2)cc1	13.2	0.9%	0.0	-2.7	-0.8%	-3.5	-0.7%
CCN(Cc1ccccc1)C(=O)CN1C(=O)c2ccccc2S1(=O)=O	-6.2	.	-0.1	.	1.4%	4.0	-0.8%
C[C@@H](Nc1nc(Cl)nc2nc[nH]c12)c1ccccc1	.	.	0.2	.	0.7%	.	-0.8%
COc1ccc(-n2ncc(C(=O)Nc3ccc(C)cc3Cl)c2C2CCN(C(=O)OC(C)(C)C)CC2)cc1	?	.	4.5	.	0.4%	.	-0.3%
C#CCOCCOCCOCCNc1nc(N2CCN(C(=O)[C@H]([C@@H](C)CC)n3cc(CCC(=O)O)nn3)CC2)nc(N2CCN(C(=O)[C@H](CCCCN)n3cc(CC(C)O)nn3)CC2)n1 (some centres not stated)	11.1	.	-0.6	.	3.3%	.	0.4%
Cc1[nH]c2ccccc2c1C(=O)CSCC(=O)O	-10.8	-4.5%	-0.4	3.1	4.5%	12.8	0.3%
COc1ccc(NC(=O)CN(C)C(=O)c2c(C)nn(-c3ccccc3)c2Cl)cc1	13.8	.	1.2	.	1.8%	-8.3	.
Nc1ncnc2c1ncn2CCN1CCOCC1	-2.4	3.5%	-1.1	2.1	1.5%	1.9	1.3%
CCCCn1nnnc1SCC(=O)NNC(=O)c1ccco1	-6.2	14.2%	-0.3	2.4	0.6%	7.3	.
CCCCNC(=O)Nc1ccccc1C(=O)NCCC	11.8	7.1%	-0.6	0.0	0.4%[38.3 µM]	11.8	-3.0%
O=C(N/N=C/c1cccc(F)c1)c1ccc(Cl)cc1	-3.9	-8.8%	-0.2	-2.4	0.1%	-11.2	.
C/C(=N\NC(=O)c1ccco1)c1ccc(NC(=O)c2cccs2)cc1	33.0	-7.3%	0.9	11.3	0.3%	-19.0	-13.1%
CCOc1ccccc1NC(=O)CCNS(=O)(=O)c1ccccc1	2.6	-3.4%	0.7	0.3	-0.8%	2.1	.
Cc1cccc(OCCN2CSC(=S)N(C)C2)c1	-2.0	8.6%	-0.9	-0.3	-2.6%	-5.7	-2.1%
CCN(Cc1ccccc1)C(=O)c1cccnc1	-2.9	-15.3%	0.5	8.0	-0.1%	1.5	.
C/C(=C\C(=O)c1ccc(Cl)cc1)Nc1ccc(N2CCOCC2)cc1	5.0	0.2%	-0.3	1.2	0.9%	-2.2	0.5%
Cc1ccc(NC(=O)CNS(=O)(=O)c2cccs2)cc1F	-7.0	9.2%	0.6	6.4	-0.4%	-4.9	-4.4%
COc1ccc(C=C2SC(=S)N(CCCN3CCOCC3)C2=O)c(OC)c1	-7.7	.	-0.5	.	0.3%	.	0.5%
CC(Sc1nc2c(N)ncnc2n1CCOc1ccccc1)C(=O)O (configuration not stated)	-15.0	3.9%	0.6	7.8	0.1%	4.4	-3.0%
CCOC(=O)c1ccc(NS(=O)(=O)c2cc(Br)cc3c2N(C(C)=O)C(C)C3)cc1 (configuration not stated)	1.6	.	-0.5	.	5.0%	.	1.4%
O=c1[nH]c(SCc2ccc(F)cc2Cl)nc2ccccc12	0.2	5.8%	0.2	0.7	5.6%	22.1	.
CC(C)(C)c1nn2cnnc2n(/N=C/c2cccc3ccccc23)c1=O	3.2	-1.3%	1.4	-0.5	-0.8%	2.5	-1.7%
CC(C)(/C=N/NC(=O)CSCc1ccc(Cl)cc1)CCC#N	28.7	8.1%	-1.2	-1.1	-0.9%	-3.1	0.6%
COc1ccc(C(=O)Nc2ccc3oc(-c4cccc(Cl)c4)cc(=O)c3c2O)cc1	-7.8	-2.5%	0.1	7.1	13.2%	-0.1	0.4%
CCCN(C(=O)c1cccc(-n2cccc2)c1)c1c(N)n(Cc2ccccc2)c(=O)[nH]c1=O	-16.6	.	0.2	.	3.0%	-12.4	.
COCCn1nnnc1C(c1ccccc1)N1CCN(c2ccccc2)CC1 (configuration not stated)	-8.0	21.2%	-0.4	1.3	0.9%	5.1	1.3%
Cc1ccc(N=Cc2cc(Cl)cc(Cl)c2O)nc1	2.6	0.7%	0.6	?	?	25.7	?
Cc1nn(CC(=O)NCCCN2CCCC2)c(=O)c2nn(-c3ccccc3)c(C)c12	-15.2	8.3%	0.0	-2.8	-1.5%	-6.0	-6.1%
OCC[C@H]1C[C@H](O)[C@@H](O)[C@@]2(CCc3ccccc3CO2)O1	-4.0	.	-0.4	.	-0.6%	12.6	0.5%
CCN(CC)S(=O)(=O)c1ccc2c(c1)N(CC(=O)N1CCN(c3ccc(OC)cc3)CC1)C(=O)CO2	17.7	.	-0.7	.	10.4%	.	-1.0%
Cc1cc(Cl)ccc1OCC(=O)NNC(=O)c1ccco1	18.6	9.4%	0.1	.	-0.9%	-7.2	-4.4%
N#Cc1ccc(NC(=O)COCc2cc(-c3ccc(F)cc3)on2)cc1	16.6	.	1.3	.	-0.8%	.	0.9%
COc1ccc(CN(C(=O)c2snc(C(N)=O)c2N)C(CC(C)C)C(=O)NC2CCCCC2)cc1 (configuration not stated)	1.0	11.2%	5.5	-1.2	1.4%	-14.2	.
COc1cccc(Cn2c(=O)cnc3cnc(N4CCOCC4)nc32)c1	.	2.1%	.	8.4	0.7%	.	.
CCOC(=O)CSCC(=O)N1N=C(c2cccs2)CC1c1ccc(F)cc1 (configuration not stated)	-11.4	-7.4%	0.5	2.0	-0.2%	-17.3	-19.7%
COc1cc(CC(=O)Nc2ncc(C)s2)cc(OC)c1OC	-0.4	16.1%	-0.9	-2.5	-0.7%	7.6	0.4%
O=C(c1ccccn1)c1ncc(C(F)(F)F)cc1Cl	-4.5	10.7%	3.6	0.3	7.4%[38.3 µM]	-1.3	-3.5%
Fc1ccc(N2CCN(C(c3cccs3)c3nnnn3CCc3ccccc3)CC2)cc1 (configuration not stated)	-17.8	21.3%	22.7	3.1	0.6%	4.8	-2.2%
COC(=O)N(C)C[C@@H]1OCc2ccccc2-c2c(n(C)c3ccccc23)C(=O)N([C@H](C)CO)C[C@@H]1C	-5.4	.	5.8	.	0.9%	.	-2.8%
CCOC(=O)c1cc(S(=O)(=O)Nc2cc(OC)ccc2OC)[nH]n1	10.8	.	0.6	.	-1.5%	.	-2.4%
Clc1ccc(OCc2nn3c(C4CCCCC4)nnc3s2)c(Cl)c1	0.5	-13.6%	-0.4	-2.5	-4.7%	-13.9	0.0%
O=S1(=O)C[C@@H](N2CCCC2)[C@H](COCc2ccccc2)N1	.	.	-0.6	.	0.5%	.	1.2%
O=C1CSC2=NCN(c3ccccc3)CN12	7.3	7.3%	0.4	3.4	-1.1%	-6.1	2.6%
CC(=O)Nc1nc(N(C)C)nc(N(C)C)n1	-12.1	9.1%	-0.2	-2.1	1.1%	-8.7	.

(cont.)
SMILES	TRPML1 blocker	Sfp PPTase inh	TRPML1 agonist	Menin-MLL FL inh	PINK1 modulator	TRPV1 potentiator	ClpP mod
Fc1ccc(C2CC(c3cccs3)=NN2C(=S)Nc2ccccc2)cc1 (configuration not stated)	64.3	13.6%	4.1	5.1	-0.6%	7.7	-4.4%
COc1cc(C(=S)N2CCOCC2)cc(Br)c1OS(=O)(=O)c1ccccc1	-5.4	6.9%	0.6	-1.6	3.1%	-16.6	0.6%
COc1ccccc1C(CNC(=O)c1cccc(S(=O)(=O)Nc2ccc(C)cc2)c1)N1CCCC1 (configuration not stated)	5.9	.	0.7	.	-1.7%	-3.2	-0.3%
Cn1c(=O)n(C)c2cc(C(=O)Nc3ccc4c(c3)OCO4)ccc21	-14.7	11.9%	-0.7	-6.7	3.3%	7.0	-2.1%
CCNC(=S)N1CCN(CC)CC1	-8.0	-17.0%	-0.2	0.1	0.4%	0.4	.

Assay outcomes (PubChem)
